Vaccinia stage: blocks a specific stage of Vaccinia orthopoxvirus infection | actives 0.01% (n = 89,000) | Vaccinia-infected cells, mCherry/Venus stage reporter fluorescence; active compounds read low; some inactives read as strong as hits | activity change (mCherry), % (concentration not given with the values);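 active = mCherry past -33% and 40 or more points under the early reporter, replicates agreeing; inconclusive = past -33% without that gap or agreement; tested in A549 cells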;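 also: scaled between vehicle wells and reference inhibitor wells; 23 nL library stock went into each well; one replicate is shown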
Vaccinia stage Venus: further read-out of Vaccinia stage, marked with its call; activity change (Venus), %; measured here: Venus reporter, other viral stage;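 negative = less Venus signal; first of two replicates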
An asterisk follows results filed as active; ? = inconclusive; . = not tested or not shown.

Below each SMILES – Vaccinia stage | Vaccinia stage Venus
COc1ccc(CN(C)C[C@H]2Oc3ccc(NS(=O)(=O)c4cn(C)cn4)cc3C(=O)N([C@@H](C)CO)C[C@H]2C)cc1
  15 | -2
CCCC#Cc1ccc([C@@H]2[C@H]3CN(C(=O)NC4CCCC4)CCCCN3[C@H]2CO)cc1
  ? | .
C[C@@H]1CCCCO[C@@H](CN(C)C(=O)Nc2ccccc2)[C@H](C)CN([C@@H](C)CO)C(=O)c2cc(NC(=O)c3ccncc3)ccc2O1
  9 | 0
O=C(C[C@H]1C[C@@H]2c3cc(NC(=O)CC4CC4)ccc3O[C@@H]2[C@@H](CO)O1)NCc1ccc(-c2ccccc2)cc1
  -27 | -19
C[C@@H]1CN([C@H](C)CO)C(=O)c2cc(NC(=O)c3ccncc3)ccc2O[C@@H](C)CCCCO[C@@H]1CN(C)CC1CCCCC1
  -6 | -10
CC(C)NC(=O)Nc1ccc2c(c1)C(=O)N([C@@H](C)CO)C[C@@H](C)[C@H](CN(C)CC1CCCCC1)OCCCC[C@H](C)O2
  10 | 0
CCCN1C[C@@H](C)[C@@H](OC)CN(C)C(=O)c2cc(NC(=O)CC(F)(F)F)ccc2OC[C@@H]1C
  -1 | 7
CCC(=O)N1[C@@H](CO)[C@@H](c2ccc(C3=CCCC3)cc2)C12CN(C(=O)COC)C2
  13 | 14
COc1ccc(S(=O)(=O)Nc2ccc3c(c2)C(=O)N([C@@H](C)CO)C[C@H](C)[C@@H](CN(C)S(=O)(=O)c2ccc(C)cc2)O3)cc1
  2 | -4
C[C@H](CO)N1C[C@H](C)[C@@H](CN(C)C(=O)NC2CCCC2)Oc2cc(C#Cc3ccc(F)cc3)ccc2S1(=O)=O
  ? | .
CCCNC(=O)N(C)C[C@H]1Oc2ncc(C#Cc3ccccc3F)cc2C(=O)N([C@H](C)CO)C[C@H]1C
  -14 | -13
COc1ccc(CN(C)C[C@H]2Oc3ccc(NC(=O)C4CCCCC4)cc3C(=O)N([C@@H](C)CO)C[C@H]2C)cc1
  -9 | -11
O=C(c1cccc(F)c1)N1CCCCN2[C@H](C1)[C@H](c1ccc(-c3ccccc3)cc1)[C@@H]2CO
  -9 | -20
C[C@H](CO)N1C[C@H](C)[C@@H](CN(C)C(=O)Cc2ccccc2)OCc2ccccc2-c2c(n(C)c3ccccc23)C1=O
  ? | .
C[C@H]1CN([C@@H](C)CO)C(=O)c2cccc(NC(=O)C3CCCCC3)c2O[C@H]1CN(C)S(C)(=O)=O
  1 | 4
Cc1ccc(-c2ccc([C@@H]3[C@@H](CO)N4CCCCN(S(=O)(=O)c5ccccc5C)C[C@@H]34)cc2)cc1
  -10 | -5
CS(=O)(=O)N1[C@@H]2c3ccc(-c4cccc(F)c4)c(=O)n3C[C@@H]2[C@@H](CO)[C@@H]1C(=O)NC1CCC1
  8 | -2
CC(=O)NC[C@@H]1[C@H](c2ccc(-c3ccccc3F)cc2)[C@@H](CO)N1C(=O)C1CC1
  -5 | 5
CC(C)CC#Cc1cnc2c(c1)C(=O)N([C@@H](C)CO)C[C@@H](C)[C@@H](CN(C)S(=O)(=O)c1cn(C)cn1)O2
  -12 | 1
C[C@H](CO)N1C[C@H](C)[C@@H](CN(C)S(=O)(=O)c2ccccc2)Oc2ccc(NC(=O)CCN3CCOCC3)cc2C1=O
  -4 | -1
CC(C)(C)[S@@](=O)N1Cc2cc(C(=O)N[C@H]3CCN(Cc4ccccc4)C3)nc(-c3cccc(-c4ccncc4)c3)c2[C@H]1CCO
  -18 | -12
CO[C@@H]1CN(C)C(=O)c2ccc(NC(=O)NC3CCCCC3)cc2OC[C@@H](C)N(C(=O)NC2CCCCC2)C[C@H]1C
  -28 | -18
C[C@H](CO)N1C[C@H](C)[C@@H](CN(C)C(=O)CC2CC2)Oc2ncc(C#CCC3CCCC3)cc2C1=O
  -21 | -24
N#C[C@H]1[C@@H](c2ccccc2C2=CCCC2)[C@H](CO)N1C(=O)c1ccccn1
  1 | -4
CC(=O)N(C)C[C@H]1Oc2ncc(C#Cc3ccccc3F)cc2C(=O)N([C@H](C)CO)C[C@H]1C
  3 | 13
CO[C@@H]1CN(C)C(=O)c2cc(NC(=O)C3CCCCC3)ccc2OC[C@@H](C)N(Cc2nccs2)C[C@@H]1C
  -17 | -11
CO[C@@H]1CN(C)C(=O)c2cc(NC(=O)Nc3cccc(F)c3)ccc2OC[C@H](C)N(C(C)=O)C[C@@H]1C
  -1 | 1
C[C@@H]1CN([C@@H](C)CO)C(=O)CCCn2nncc2CO[C@@H]1CN(C)C(=O)Nc1ccc(F)cc1
  -3 | 1
COc1ccccc1CN1CC[C@@H]2[C@H]1c1cc(C#Cc3ccccc3)ccc1N[C@@H]2CO
  ? | .
COc1ccc(C#Cc2cnc3c(c2)C(=O)N([C@@H](C)CO)C[C@H](C)[C@@H](CN(C)C(=O)c2ccccc2F)O3)cc1
  ? | .

Reformatted as labelled records: three of the compounds above
Molecule: C[C@H](CO)N1C[C@H](C)[C@@H](CN(C)C(=O)Cc2ccccc2)OCc2ccccc2-c2c(n(C)c3ccccc23)C1=O
  Vaccinia stage: ?
  Vaccinia stage Venus: .

Molecule: C[C@H]1CN([C@@H](C)CO)C(=O)c2cccc(NC(=O)C3CCCCC3)c2O[C@H]1CN(C)S(C)(=O)=O
  Vaccinia stage: 1
  Vaccinia stage Venus: 4

Molecule: Cc1ccc(-c2ccc([C@@H]3[C@@H](CO)N4CCCCN(S(=O)(=O)c5ccccc5C)C[C@@H]34)cc2)cc1
  Vaccinia stage: -10
  Vaccinia stage Venus: -5

Other compounds follow.
Below each SMILES – Vaccinia stage | Vaccinia stage Venus
CN(C)C(=O)c1cccc(-c2ccc([C@H]3[C@H](CO)N4C(=O)CN(C(=O)C5CCCC5)C[C@@H]34)cc2)c1
  26 | 12
COc1ccc(NC(=O)N2C[C@@H](O)COC[C@@H]3O[C@@H](CC(=O)N4CCOCC4)CC[C@H]32)cc1
  12 | 0
C[C@@H]1CN([C@H](C)CO)C(=O)Cc2cc(NS(=O)(=O)c3cn(C)cn3)ccc2O[C@@H]1CN(C)S(=O)(=O)c1ccc(F)cc1
  8 | 10
CCCNC(=O)N(C)C[C@@H]1Oc2cc(-c3ccc(C)cc3)ccc2S(=O)(=O)N([C@@H](C)CO)C[C@H]1C
  -11 | -5
C[C@@H]1CN([C@H](C)CO)S(=O)(=O)c2ccc(C#Cc3cccc(F)c3)cc2O[C@@H]1CN(C)C(=O)NC1CCCCC1
  ? | .
O=C(N[C@H]1CC[C@@H](CCn2cc(C3(O)CCCC3)nn2)O[C@H]1CO)C1CCCC1
  -7 | 5
O=C(Cc1ccccc1)N[C@@H]1C=C[C@@H](CC(=O)N2CCCCC2)O[C@@H]1CO
  3 | 10
COCC#Cc1ccc([C@H]2[C@H](CO)N3C(=O)CN(C(=O)c4ccncc4)C[C@@H]23)cc1
  16 | 6
CO[C@H]1CN(C)C(=O)c2cc(NC(=O)C3CCC3)ccc2OC[C@@H](C)NC[C@H]1C
  0 | 3
CCC(=O)N(C)C[C@@H]1Oc2cc(/C=C/c3ccccc3)ccc2S(=O)(=O)N([C@@H](C)CO)C[C@@H]1C
  -24 | -30
C[C@H]1CN([C@@H](C)CO)C(=O)c2cccc(NS(=O)(=O)c3cn(C)cn3)c2O[C@@H]1CN(C)S(=O)(=O)c1ccc(Cl)cc1
  12 | -7
Cc1ccc(S(=O)(=O)Nc2ccc3c(c2)C(=O)N([C@@H](C)CO)C[C@@H](C)[C@H](CN(C)Cc2ccc(C(=O)O)cc2)O3)cc1
  22 | 9
CC=Cc1ccc2n(c1=O)C[C@H]1[C@H](CO)[C@@H](C(=O)N3CCC(Cc4ccccc4)CC3)N(CC)[C@@H]21 (mixture of isomers)
  -3 | -2
C/C=C/c1ccc2c(c1)O[C@@H](CN(C)Cc1cccnc1)[C@H](C)CN([C@@H](C)CO)S2(=O)=O
  -4 | -10
C/C=C/c1ccc([C@@H]2[C@H](CO)N3CCCCN(C(=O)Nc4ccccc4F)C[C@@H]23)cc1
  -17 | -21
C[C@H](NC(=O)C[C@H]1CC[C@H](NC(=O)C2CCC2)[C@@H](CO)O1)c1ccccc1
  5 | 5
C[C@@H]1CN([C@H](C)CO)C(=O)c2cc(NC(=O)NC3CCCCC3)ccc2O[C@H]1CN(C)Cc1ccccc1
  -4 | -2
Cc1noc(C)c1NC(=O)Nc1ccc2c(c1)C(=O)N(C)[C@@H]1CC[C@@H](CC(=O)N[C@H]3CCN(Cc4ccccc4)C3)O[C@@H]1CO2
  0 | -7
C[C@@H]1CN([C@H](C)CO)C(=O)c2cc(NS(=O)(=O)c3ccc(F)cc3)ccc2O[C@H]1CN(C)C
  -2 | 1
O=C(c1ccccc1)N1C[C@@H]2[C@H](c3ccccc31)[C@H](CO)N2S(=O)(=O)c1ccccc1
  21 | 20
O=C(C[C@@H]1C[C@@H]2c3cc(NC(=O)Nc4ccc(C(F)(F)F)cc4)ccc3O[C@@H]2[C@H](CO)O1)NCCc1ccccc1
  1 | 3
Cc1noc(C)c1S(=O)(=O)Nc1ccc2c(c1)C(=O)N([C@@H](C)CO)C[C@H](C)[C@H](CN(C)C(=O)Nc1ccccc1)OCCCC[C@H](C)O2
  -14 | -12
CC(C)NC(=O)N[C@@H]1C=C[C@@H](CC(=O)O)O[C@H]1CO
  4 | 12
C[C@@H]1CN([C@H](C)CO)C(=O)c2cc(NC(=O)Nc3ccc(F)cc3)ccc2O[C@@H](C)CCCCO[C@@H]1CN(C)S(=O)(=O)c1ccc(Cl)cc1
  13 | 11
COc1cc(CN2C[C@@H]3N[C@H](C2)C3c2ccc(-c3ccccc3C)cc2)cc(OC)c1 (stereo not given in full)
  ? | .
Cc1noc(C)c1NC(=O)N(C)C[C@H]1Oc2c(NC(=O)c3nc4ccccc4s3)cccc2C(=O)N([C@@H](C)CO)C[C@H]1C
  -16 | -18
C[C@@H]1CN([C@@H](C)CO)C(=O)c2cccc(NC(=O)c3nc4ccccc4s3)c2O[C@@H]1CN(C)Cc1ccncc1
  -7 | -7
COc1ccc(CN(C)C[C@H]2OCc3cn(nn3)CCCC(=O)N([C@@H](C)CO)C[C@H]2C)cc1
  -3 | 16
COCC#Cc1cnc2c(c1)C(=O)N([C@@H](C)CO)C[C@@H](C)[C@H](CN(C)C(=O)Cc1cccnc1)O2
  5 | -1
CCCNC(=O)N(C)C[C@H]1Oc2cc(-c3ccncc3)ccc2S(=O)(=O)N([C@@H](C)CO)C[C@@H]1C
  15 | 5
CC(C)NC(=O)N(C)C[C@H]1Oc2cc(C#CCN(C)C)ccc2S(=O)(=O)N([C@@H](C)CO)C[C@H]1C
  6 | 6
C[C@@H]1CN([C@@H](C)CO)C(=O)c2cc(NC(=O)Nc3ccc(C(F)(F)F)cc3)ccc2O[C@H]1CN(C)Cc1ccc(C(=O)Nc2ccccc2N)cc1
  1 | 1
COc1ccc(S(=O)(=O)N[C@@H]2CC[C@H](CC(=O)N3CCc4ccccc4C3)O[C@H]2CO)cc1
  7 | 1
C[C@H]1CN([C@@H](C)CO)C(=O)Cc2cc(NC(=O)NC3CCCCC3)ccc2O[C@H]1CN(C)S(=O)(=O)c1cn(C)cn1
  -1 | 1
O=C(c1ccc(F)cc1)N1CC(=O)N2[C@H](CO)[C@@H](c3ccc(C#CC4CCCC4)cc3)[C@H]2C1
  ? | .
Cc1noc(C)c1NC(=O)Nc1ccc2c(c1)CC(=O)N([C@@H](C)CO)C[C@H](C)[C@H](CN(C)Cc1ccc(Cl)c(Cl)c1)O2
  ? | .
C[C@@H]1CN([C@@H](C)CO)C(=O)c2cc(NC(=O)c3ccncc3)ccc2O[C@@H]1CN(C)Cc1ccc2c(c1)OCO2
  8 | 7
C[C@@H]1CN([C@H](C)CO)C(=O)CCCn2nncc2CO[C@H]1CN(C)C(=O)Nc1ccc2c(c1)OCCO2
  18 | 19
C[C@@H]1CN([C@@H](C)CO)C(=O)Cc2cc(NC(=O)C3CC3)ccc2O[C@@H]1CN(C)C(=O)Nc1ccccc1
  5 | 2
O=C(Cc1ccccc1)N1CC2(C1)[C@@H](c1ccccc1)[C@H](CO)N2C(=O)Cc1ccccc1
  -1 | -3
CN1CCN(C(=O)c2cc3c(c(-c4cccc(Br)c4)n2)[C@@H](CCO)N([S@](=O)C(C)(C)C)C3)CC1
  18 | 14
O=C(C[C@H]1C[C@H]2c3cc(NC(=O)c4ccc5c(c4)OCO5)ccc3O[C@H]2[C@H](CO)O1)NCc1ccccn1
  1 | 11
O=C(C[C@@H]1C=C[C@H](NC(=O)C2CCOCC2)[C@H](CO)O1)NCC1CC1
  13 | 24
C[C@@H]1CN([C@@H](C)CO)C(=O)Cc2cc(NS(=O)(=O)c3ccc(Cl)cc3)ccc2O[C@H]1CN(C)S(=O)(=O)c1cn(C)cn1
  4 | 2
COc1ccccc1CNC(=O)C[C@@H]1CC[C@H](NC(C)=O)[C@H](CO)O1
  21 | 12
CCC(=O)Nc1ccc2c(c1)C(=O)N(C)[C@@H]1CC[C@H](CC(=O)NCc3ccccc3Cl)O[C@@H]1CO2
  -5 | -6
COc1ccc(S(=O)(=O)N(C)C[C@H]2Oc3ccc(NC(=O)CCC(F)(F)F)cc3CC(=O)N([C@H](C)CO)C[C@H]2C)cc1
  3 | -1
C[C@H](CO)N1C[C@H](C)[C@H](CN(C)C(=O)CCC(F)(F)F)OCCCC[C@H](C)Oc2ccc(NC(=O)NC3CCCCC3)cc2C1=O
  -7 | -7
C[C@@H]1CN([C@H](C)CO)C(=O)Cc2cc(NC(=O)CCC(F)(F)F)ccc2O[C@@H]1CN(C)Cc1ccc(C(=O)Nc2ccccc2N)cc1
  -13 | -4

Single records (already shown).
C[C@H]1CN([C@@H](C)CO)C(=O)Cc2cc(NC(=O)NC3CCCCC3)ccc2O[C@H]1CN(C)S(=O)(=O)c1cn(C)cn1 as listed: Vaccinia stage = -1; Vaccinia stage Venus = 1
CC(=O)NC[C@@H]1[C@H](c2ccc(-c3ccccc3F)cc2)[C@@H](CO)N1C(=O)C1CC1 as listed: Vaccinia stage = -5; Vaccinia stage Venus = 5

Screening data from PubChem BioAssay.

Only part of the results is shown (hit frequency here may not be typical).
